# From PubChem
# B2AR ag – agonists of human beta-2 adrenergic receptor inducing internalization; P07550; Am2.2-beta2AR cells, FAP receptor internalization, flow cytometry; reference of the scale not given here; response, % (test concentration not listed); hit rate 0.43% among 340,000;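 active = response above a set limit, near 3 SD of response in nonfluorescent compounds, cut at about 42% in these data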;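 also: stock transfer was 100 nL into about 11 µL; a reference agonist was the positive control; negative values mostly stem from fluorescent compounds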
# Target sequence (P07550 whole entry, looked up): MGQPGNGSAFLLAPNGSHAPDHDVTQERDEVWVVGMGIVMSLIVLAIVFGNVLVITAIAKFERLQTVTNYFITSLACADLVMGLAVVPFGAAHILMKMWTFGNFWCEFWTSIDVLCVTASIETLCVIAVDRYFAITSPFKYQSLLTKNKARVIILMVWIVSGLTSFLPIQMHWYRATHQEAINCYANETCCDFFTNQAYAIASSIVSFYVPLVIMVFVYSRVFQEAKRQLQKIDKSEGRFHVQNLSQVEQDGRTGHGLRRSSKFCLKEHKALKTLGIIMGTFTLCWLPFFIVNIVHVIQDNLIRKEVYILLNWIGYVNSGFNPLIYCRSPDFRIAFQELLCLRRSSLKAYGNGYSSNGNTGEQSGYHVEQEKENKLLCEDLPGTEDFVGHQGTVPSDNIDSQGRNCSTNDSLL
# Beta apoptosis – blocks beta cell apoptosis; INS-1E cytokine-induced death, ATP luminescence, 48 h; percent of positive-control rescue, neutral wells zero; protection from apoptosis, % (test concentration not listed); hit rate 0.8% among 300,000; AID 435005;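 active = all replicates at 75% or more, or half of them and the mean; inconclusive = half reach 75% but not the mean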;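 also: 0% = cytokine-treated negative control wells and 100% = positive control rescue; higher means more ATP so stronger rescue from cytokine killing; wells of about 40 µL received 100 nL stock; the first replicate is given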
# T cruzi repl – blocks replication of Trypanosoma cruzi; inhibition, % (no concentration beside the values); hit rate 1.4% among 300,000; T. cruzi beta-gal in NIH3T3, luminescence, 90 h;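 active = mean inhibition across valid replicates above about 55%, limit read from the data; inconclusive = mean below that limit but half or more replicates reach it; inactive = mean below it, under half of replicates reach it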;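 also: signal also drops with host cell toxicity which is not excluded here; 0% = plate median of DMSO wells and 100% = zero luminescence signal; higher percent means less beta-gal luminescence so fewer parasites; stock transfer was 50 nL into about 50 µL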
# UCH37 DUB inh – blocks the human deubiquitinase UCH37. AID 588478. hit rate 0.33% among 330,000. Q9Y5K5. purified proteasome/UCH37, Ub-AMC cleavage fluorescence. inhibition, % (concentration not given with the values);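 active = mean of two replicates above 20%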;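 also: 0% = compound-free wells with enzyme and 100% = wells lacking proteasome; stock transfer was 100 nL into about 20 µL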
# Target sequence (Q9Y5K5 whole entry, looked up): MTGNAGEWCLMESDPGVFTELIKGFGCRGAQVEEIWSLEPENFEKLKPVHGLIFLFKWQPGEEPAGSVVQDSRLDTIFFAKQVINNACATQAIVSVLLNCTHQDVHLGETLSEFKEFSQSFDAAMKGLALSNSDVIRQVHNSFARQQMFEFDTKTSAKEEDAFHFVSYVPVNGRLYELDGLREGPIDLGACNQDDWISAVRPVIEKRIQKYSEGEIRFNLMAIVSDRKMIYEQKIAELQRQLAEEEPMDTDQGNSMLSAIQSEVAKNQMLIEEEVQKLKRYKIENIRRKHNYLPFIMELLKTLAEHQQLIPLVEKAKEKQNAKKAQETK
#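 Material: Human UCH37 enzyme supplied as purified proteasome complex | Schedule: 30 min preincubation with enzyme, 25 min cleavage at room temperature | Detection: AMC fluorescence 355/460 nm | Measure: % inhibition of Ub-AMC cleavage fluorescence | Controls: Wells without proteasome as full block, compound-free enzyme plus substrate as uninhibited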
# Calb FLC – affects C. albicans growth with fluconazole; C. albicans CaCi-2 (fluconazole-resistant clinical isolate) + fluconazole, Alamar Blue growth, 48 h; growth inhibition, % (concentration not given with the values); hit rate 0.57% among 300,000; AID 1979;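 active = most replicates above 75%; inconclusive = exactly half above 75%; inactive = most below 75%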;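 also: all wells also contain fluconazole at 8 µg/ml as a sub-toxic cotreatment; 0% = median of DMSO wells and 100% = median of geldanamycin control wells; wells of about 8 µL received 7.5 nL stock; the first replicate is given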
# RanGTP-Imp inh – disruptors of Ran-importin-beta complex formation – biochemical, FRET, CFP-Ran, YFP-importin-beta, homogeneous, primary screen; inhibition, % (no concentration beside the values); cell-free CFP-Ran/YFP-importin-beta FRET ratio; AID 2216; hit rate 1.1% among 300,000;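 active = most replicates above 15%; inconclusive = exactly half above 15%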;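 also: 0% = DMSO wells and 100% = Ran loaded with GDP instead of GTP; wells of about 40 µL received 100 nL stock; the first replicate is given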
# LANA-H2B inh – blocks KSHV LANA binding to histone H2A/H2B. Q9QR71. cell-free LANA-H2A/H2B peptide, fluorescence polarization. inhibition, % (concentration not given with the values). hit rate 0.6% among 320,000. AID 2629; in the data active = inhibition mostly above about 10%, no sharp cut-off; inactive = mostly below about 6.7%;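 also: stock transfer was 7.5 nL into about 10 µL; 0% = median of vehicle wells and 100% = median of positive control wells; one replicate is shown; the record names a cut of 25% in any replicate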
# Bfl-1 A1 inh – inhibitors of the anti-apoptotic protein A1, read as caspase activation; MEF A1-2A-BIM cells, Caspase-Glo 3/7 luminescence, 3 h; percent of clofoctol response, vehicle zero; caspase activation, % (no concentration beside the values); hit rate 0.066% among 330,000; AID 2462;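 active = over half of replicate activation scores above 10%, or exactly half above 10 with the replicate mean above 10; inconclusive = replicate mean below 10 yet half the replicates above 10; inactive = over half of replicates below 10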;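 also: wells of about 30 µL received 50 nL stock; many hits fall short of the cut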
# An asterisk follows results filed as active; ? = inconclusive; · = not tested or not shown.
SMILES,B2AR ag,Beta apoptosis,T cruzi repl,UCH37 DUB inh,Calb FLC,RanGTP-Imp inh,LANA-H2B inh,Bfl-1 A1 inh
COc1ccc(C(=O)NCc2nnc(SCC(=O)Nc3cccc(OC)c3)o2)cc1,1,-2,-4,1.1,20,0.1,0.8,1.4
Cc1cc(N2CCCCC2)nc(SCc2ccc(C#N)cc2)n1,-14,-7,25,1.9,1,-3.2,-3.9,0.0
O=C(NCCCn1ccnc1)c1ccc(-c2ccccc2)cc1,-9,97*,-19,0.1,-6,-2.2,-3.7,0.5
CCOC(=O)Nc1sc2c(c1C#N)CCCC2,-9,1,-6,6.5,20,4.0,3.8,1.1
O=C(O)/C=C/c1ccccc1Oc1ccccc1,4,-6,-5,3.2,5,-1.8,-1.4,-0.1
CCS(=O)(=O)c1ccc(O)c(NC(=O)COc2ccc(C)cc2)c1,-3,2,0,0.2,-7,-0.9,-8.5,0.7
O=C(NCc1ccccc1)c1nc2c(nnn2Cc2cccc(Cl)c2)c(=O)[nH]1,2,1,0,2.5,-8,?,0.8,-0.3
OC1(c2ccc(F)cc2)CN(c2ccccc2)C2=[N+]1CCS2 (stereo not given),5,2,19,2.4,-1,0.1,6.5,-0.1
O=[n+]1c2c(n([O-])c3cc(Br)ccc31)CCCC2,4,-5,-45,11,3,4.6,3.7,-1.3
COc1ccc2c(CSc3nnc(-c4cccnc4)n3-c3ccccc3F)cc(=O)oc2c1,3,4,3,-8.0,28,-2.6,-2.7,0.2
Cc1ccccc1S(=O)(=O)Cc1ccc(C(=O)NCc2ccco2)o1,6,9,-3,-1.9,18,-0.9,3.1,0.4
O=C(CN1CCN(c2ccc(O)cc2)CC1)Nc1ccc(-c2ccccc2)cc1,1,7,-9,-1.9,-14,-2.1,-2.4,0.9
Cc1cc(NC(=O)CSc2nnc(-c3ccc(S(=O)(=O)N4CCCC4)cc3)n2C)no1,-1,-1,2,7.3,3,6.7,1.5,-0.1
COc1cccc(-c2nc3sc4c(c3c(=O)[nH]2)CCCCC4)c1,-2,-6,-5,-58,-3,?,·,1.0
CCN1CCN(C(c2ccc(OC)cc2)C(O)C(=O)c2c[nH]c3ccccc23)CC1 (stereo not given),-8,-1,-9,1.2,3,3.4,5.1,0.5
C=CCn1nnnc1SCC(=O)Nc1ccc(OC)cc1,-5,-3,-10,-1.7,4,3.8,1.3,-1.0
COC(=O)[C@@]1(Cc2ccc(OC)cc2)[C@@H]2[C@@H](CC(=O)[C@H]2CC(=O)C(=O)N(C)C)CN1C(=O)c1ccccc1,-10,-6,-3,1.2,11,4.6,0.6,?
CCn1c(Sc2nc(C)nc3scc(-c4cccs4)c23)n[nH]c1=O,2,-7,-14,6.2,95*,3.5,-4.0,-0.2
CC1=Nc2cc(C(=O)N3CCCC3)ccc2Sc2ccc(C)cc21,-6,2,7,5.1,-12,0.1,-0.3,0.2
O=C(NCC1CCCO1)c1c(O)c2cccc3c2n(c1=O)CC3 (stereo not given),-8,1,-1,0.8,-1,3.9,4.7,0.1

# Pulled one by one from above:
SMILES,B2AR ag,Beta apoptosis,T cruzi repl,UCH37 DUB inh,Calb FLC,RanGTP-Imp inh,LANA-H2B inh,Bfl-1 A1 inh
O=C(CN1CCN(c2ccc(O)cc2)CC1)Nc1ccc(-c2ccccc2)cc1,1,7,-9,-1.9,-14,-2.1,-2.4,0.9
Cc1cc(N2CCCCC2)nc(SCc2ccc(C#N)cc2)n1,-14,-7,25,1.9,1,-3.2,-3.9,0.0
CC1=Nc2cc(C(=O)N3CCCC3)ccc2Sc2ccc(C)cc21,-6,2,7,5.1,-12,0.1,-0.3,0.2

# (next part)
SMILES,B2AR ag,Beta apoptosis,T cruzi repl,UCH37 DUB inh,Calb FLC,RanGTP-Imp inh,LANA-H2B inh,Bfl-1 A1 inh
COc1ccccc1N(CC(=O)NC1CCCCC1)S(C)(=O)=O,11,2,7,-1.6,?,-0.3,-6.5,-0.6
Cc1ccc(C=Nc2cc([N+](=O)[O-])ccc2C)s1,3,0,-7,3.1,?,4.9,-1.2,0.5
COc1ccc(-n2nc([N+](=O)[O-])c(=NCCc3ccccc3)n2O)cc1,-7,12,31,5.0,-26,-3.4,-1.0,0.2
CCOCCCNC(=O)C(NC(=O)c1ccccn1)c1ccc(C)cc1 (stereo not given),-2,5,-2,0.9,-1,-1.6,12*,-0.7
COC(=O)C(NC(=O)c1ccc(OC)cc1)(Nc1ncc(S(=O)(=O)c2ccc([N+](=O)[O-])cc2)s1)C(F)(F)F (stereo not given),-5,-1,5,5.1,-7,-1.9,0.0,-0.1
O=C(CSc1nc2c(c(=O)n1-c1ccc(F)cc1)SCC2)NCC1CCCO1 (stereo not given),-1,-6,-3,8.3,-6,-2.4,-2.2,?
CC(OC(=O)c1cccnc1SCc1cc(=O)n2ccccc2n1)c1ccccn1 (stereo not given),-4,-3,1,-11,44,1.6,-0.7,-0.8
NC(=O)c1c(NC(=O)CSc2nc3c(c(C(F)(F)F)n2)CCc2ccccc2-3)sc2c1CCCC2,-11,-1,-11,0.3,0,-0.1,1.1,0.3
O=C(Cn1cncn1)N/N=C/c1cccc2ccccc12,-4,-1,0,·,-5,3.2,1.7,0.2
CSc1cccc(NC(=O)C2(S(=O)(=O)c3ccc(C)cc3)CC2)c1,-3,-8,-6,4.7,12,-3.4,2.8,-0.3
COC(=O)CCCC1=CC2=CC(=O)C(C)(OC(=O)c3cccs3)C(=O)C2=CN1CCN1CCOCC1 (stereo not given),-8,-4,-2,2.6,6,-6.0,-0.8,-0.5
O=C(NCCc1cn2ccccc2n1)c1ccc(Br)o1,-3,-5,-15,-2.3,0,6.6,2.9,0.6
Cc1c(C(=O)NN)nn(-c2ccc(Cl)cc2)c(=O)c1C#N,-6,4,·,7.7,-4,·,1.4,-0.1
CCO[C@H]1OC(C(=O)N2CCN(Cc3ccccc3)CC2)=C[C@@H](C2CCCCC2)[C@@H]1CCCO,-5,1,28,-0.2,-7,-1.6,-4.5,-0.8
COc1cc(-c2nc3n(c(=O)c2C#N)CCS3)cc(OC)c1OC,0,0,-21,3.7,-5,1.4,-0.7,-0.2
CCOC(=O)N1CCC(NC(=O)c2cc3ccccn3n2)CC1,3,-2,-14,1.0,-5,-2.3,4.2,0.1
Cc1c(NC(=O)c2cc(-c3ccccc3)nc3ccccc23)c(=O)n(-c2ccccc2)n1C,8,3,·,5.7,·,·,-3.0,-0.3
CC(CNC(=O)CCC(=O)N1CCOc2ccc(Cl)cc21)c1ccccc1 (stereo not given),-6,-1,3,0.5,15,6.9,2.8,0.3
COc1ccc(-c2cn3ccccc3n2)cc1[N+](=O)[O-],-13,17,-8,46*,11,3.6,-2.7,-5.9
O=C(Nc1cccc(S(=O)(=O)N2CCOCC2)c1)c1ccc2c(=O)n3c(nc2c1)CCCCC3,23,·,19,4.3,-30,-5.3,-1.0,-0.3
O=C(Nc1ccc(F)cc1)c1ccccc1NS(=O)(=O)N1CCCC1,0,10,-24,-8.2,?,-3.0,-1.4,-0.5
CC1(C(=O)NNC(=S)NCc2ccco2)CC1(Cl)Cl (stereo not given),2,-5,-13,5.3,14,0.3,1.6,1.3
C=Cn1cc[n+](CC(=O)c2ccc(Cl)cc2)c1,-3,-1,8,2.0,3,-2.9,2.6,0.6
NC1(C#Cc2ccc3oc(=O)c(-n4cc(-c5ccsc5)nn4)cc3c2)CCCCC1,34,-2,·,2.1,·,·,-10,0.9
CC1CC2(CCCC2)N(C(=O)N(C)C)c2ccc(F)cc21 (stereo not given),-1,-4,-12,3.6,3,2.6,1.0,0.8
COc1cc(/C=N/n2cnnc2)ccc1OCc1ccccc1,-16,-5,51,·,1,4.1,0.1,-0.6
COc1ccc(C(=O)N2CCC(NC(=O)C(Cc3ccccc3OC)NC(C)=O)CC2)cc1 (stereo not given),4,·,4,1.3,2,2.5,·,·
CC(C)NC(=O)C(=O)NCCC1CCCCN1S(=O)(=O)c1cccs1 (stereo not given),1,·,-9,-0.9,-20,1.5,-3.1,0.2
COC(=O)C1=C(C)NC(=O)NC1c1ccc(-c2ccccc2Cl)o1 (stereo not given),23,-8,16,0.5,-3,3.0,2.3,-0.3
COc1ccc(/C=N\Nc2ccccc2[N+](=O)[O-])c(C(=O)O)c1OC,1,7,-1,·,-13,-0.5,-2.6,0.2
C#CCNC(=O)C1=C[C@@H](c2ccc(C#C)cc2)C[C@@H](OCc2ccc(CO)cc2)O1,-7,-2,7,1.4,-4,4.5,4.7,0.9
Cc1ccc(NC2CC(=O)N(CCc3ccccc3)C2=O)cc1 (stereo not given),4,-6,-4,4.9,-22,2.4,-2.0,-0.2
CNC(=O)CN(Cc1ccccc1)S(=O)(=O)c1ccccc1,-1,-2,-18,1.0,5,-2.0,-2.2,1.1
CC(CCc1ccccc1)NC(=O)c1ccccc1C(=O)O (stereo not given),9,-4,-2,-0.6,3,-0.4,-0.5,0.0
Cc1nc2cc(C(=O)OCC(=O)Nc3ccc(C#N)cc3)ccc2n1-c1ccccc1,6,-4,-3,-19,-7,1.7,-2.4,0.4
CNC(=O)CC1C(=O)N(c2ccc(F)cc2)C(=S)N1NC(=O)c1ccc(Cl)cc1 (stereo not given),9,-8,2,3.7,13,-3.2,2.9,-0.3
OCCNCc1cccc(OCc2ccc(Cl)cc2)c1,35,6,5,5.3,-21,-1.1,-11,-0.5
CCCCc1ccc(NC(=O)C(=O)NCCN2CCN(C(=O)c3ccc([N+](=O)[O-])cc3)CC2)cc1,-9,32,23,5.0,4,5.4,-0.3,0.1
COc1ccc2c(c1)O[C@H](c1ccc3c(c1)OCO3)[C@@H](OC(=O)N[C@H]1CCCc3ccccc31)C2=O,·,4,·,2.1,·,·,1.4,0.7
Brc1ccc(CN2C3=NCCCN3c3ccccc32)cc1,1,7,21,4.6,-26,-2.4,2.2,0.1
O=Cc1ccc(C(=O)OCC(=O)NC(=O)Nc2ccccc2F)cc1,5,0,·,1.1,·,·,-4.6,0.9
Cc1ccc(CNC(=O)c2nccnc2C(=O)O)cc1,-1,-7,-5,2.5,1,-1.5,3.9,0.0
CCN(CC)CCOC(=O)C1(c2ccc(OC)c(OC)c2)CCCC1,7,-2,12,3.9,15,3.1,-2.0,-0.4

# Whole records as entered above. Order of screens: B2AR ag | Beta apoptosis | T cruzi repl | UCH37 DUB inh | Calb FLC | RanGTP-Imp inh | LANA-H2B inh | Bfl-1 A1 inh
# CC(CCc1ccccc1)NC(=O)c1ccccc1C(=O)O (stereo not given) reads 9 | -4 | -2 | -0.6 | 3 | -0.4 | -0.5 | 0.0
# CNC(=O)CN(Cc1ccccc1)S(=O)(=O)c1ccccc1 reads -1 | -2 | -18 | 1.0 | 5 | -2.0 | -2.2 | 1.1
# Brc1ccc(CN2C3=NCCCN3c3ccccc32)cc1 reads 1 | 7 | 21 | 4.6 | -26 | -2.4 | 2.2 | 0.1
# Cc1ccc(NC2CC(=O)N(CCc3ccccc3)C2=O)cc1 (stereo not given) reads 4 | -6 | -4 | 4.9 | -22 | 2.4 | -2.0 | -0.2
